Screening data deposited in PubChem by several laboratories.
Yeast UUG start: modulators of start codon recognition fidelity in yeast; S. cerevisiae UUG-firefly luciferase reporter, luminescence/redox ratio; activity score, % at 18.7 µM; hit rate 0.13% among 350,000; AID 602363;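 active = replicate mean at a twofold rise or more, about +100% in these data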;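 also: firefly luciferase made from a UUG start codon reports start codon fidelity; reporter light over untreated wells divided by growth signal over untreated wells; some hits fall short of that in this replicate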
Rce1 inh: yeast Ras-converting enzyme inhibition; calls only; yeast membranes, quenched prenylated peptide cleavage fluorescence; hit rate 0.27% among 290,000;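 active = fall in fluorescence gain of 50% or more versus controls, with final raw signal at or below 3038400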;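 also: plate controls were neutral control wells for no effect and wells lacking membranes for full effect; tested at 10 µM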
CSC inhib: blocks cancer stem cells; hit rate 1.1% among 300,000; AID 2717; cancer stem cell-like cells viability, luminescence; inhibition, % at 7.5 µM;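 active = mean at 75% or more and at least half the replicates too; tested in HMLE shEcad cells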;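 also: 0% = median of negative and 100% = median of positive control wells; the first replicate is given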
eIF4H inh: inhibitors of RNA binding by human eIF4H. Q15056. eIF4H fluorescence polarization binding assay. inhibition, % at 35 µM. hit rate 0.94% among 290,000;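 active = 50% or more with normal probe brightness, or confirmed in later tests; about a fifth of its hits are not listed in these tables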;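 also: calls also rest on retests at 20 µM and on dose response follow-up; 0% = protein and probe with vehicle and 100% = probe without protein; strong numbers were not always called active; many hits fall short of the cut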
MT1-MMP act inh: MT1-MMP (human) activation inhibition. GFP/RFP ratio change, % at 20 µM. HT1080 RFP-PRO-GFP cells, GFP/RFP ratio fluorescence, overnight; percent of plate control window, DMSO zero. hit rate 0.061% among 360,000. P50281;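 active = GFP/RFP ratio change of at least 30% with cell ATP level not reduced by more than half and red fluorescence within 50% of control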; also: strong numbers were not always called active
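Test system: HT1080 cells expressing an RFP-PRO-GFP fluorescent reporter construct / Compound dosing: single-point 20 µM compound, 1% DMSO / Schedule: cells overnight before dosing, compound overnight, 37 °C, 5% CO2 / Evaluation: GFP/RFP fluorescence ratio / Control set: DMSO and RFP-L50D-GFP cell wells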
Env fusion inh: inhibitors of HIV Env-mediated cell fusion. HeLa-JRFL Env/CEM21 cell fusion, luciferase. inhibition, % at 12.3 µM. hit rate 1.1% among 360,000;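 active = mean replicate inhibition score of at least 50 and every replicate individually at or above 50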;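 also: 0% = plate neutral controls and 100% = maraviroc near 300 nM; one replicate is shown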
PABP FP inh: blocks human PABP binding to poly(A) RNA. P11940. fluorescence polarization. inhibition, % at 35 µM. hit rate 1% among 290,000. AID 2014;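 active = 50% or more with normal probe brightness, or confirmed in later tests; about a fifth of its hits are not listed in these tables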;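 also: calls also rest on retests at 20 µM and on dose response follow-up; controls were probe without protein and protein plus probe with vehicle; some compounds called inactive have numbers as strong as hits; many hits fall short of the cut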
Target sequence (P11940 whole entry, looked up): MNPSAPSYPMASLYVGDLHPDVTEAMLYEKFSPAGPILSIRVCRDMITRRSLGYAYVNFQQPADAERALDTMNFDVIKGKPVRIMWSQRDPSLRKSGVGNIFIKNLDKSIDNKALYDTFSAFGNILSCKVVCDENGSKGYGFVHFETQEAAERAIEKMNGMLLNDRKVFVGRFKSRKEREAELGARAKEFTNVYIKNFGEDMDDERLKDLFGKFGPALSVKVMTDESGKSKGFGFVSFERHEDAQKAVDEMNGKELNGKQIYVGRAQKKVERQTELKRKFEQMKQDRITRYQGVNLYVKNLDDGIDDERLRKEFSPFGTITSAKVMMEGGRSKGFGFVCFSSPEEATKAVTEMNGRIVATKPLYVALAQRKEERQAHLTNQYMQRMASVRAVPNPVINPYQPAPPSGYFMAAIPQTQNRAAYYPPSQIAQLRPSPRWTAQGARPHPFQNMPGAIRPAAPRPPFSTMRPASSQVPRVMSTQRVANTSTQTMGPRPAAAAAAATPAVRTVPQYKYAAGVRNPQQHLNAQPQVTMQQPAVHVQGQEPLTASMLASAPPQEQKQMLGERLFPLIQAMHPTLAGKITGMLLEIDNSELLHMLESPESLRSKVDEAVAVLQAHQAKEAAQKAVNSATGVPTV
eIF4H inh retest: also measured in eIF4H inh; calls as there; inhibition, %; compound at 20 µM; confirmation average;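 mean of two retest wells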
PABP FP inh retest: further read-out of PABP FP inh, marked with its call; inhibition, %; compound at 20 µM; confirmation repeats;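 mean of two retest wells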
MT1-MMP act inh RFP: also measured in MT1-MMP act inh; calls as there; RFP signal change, %; measured here: RFP expression control read;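 0 = vehicle wells; hits needed this value within 50% of zero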
Numbers without * were called inactive; i = inactive; / = no result given. An excerpt; the hit share may differ from the screen's.

SMILES | Yeast UUG start | Rce1 inh | CSC inhib | eIF4H inh | MT1-MMP act inh | MT1-MMP act inh RFP | Env fusion inh | PABP FP inh | others
c1ccc(-c2nccc(-c3ccc(-n4cnc5ccccc54)cc3)n2)cc1 | -12 | i | 6 | -8 | 4 | 2 | -68 | 1
Clc1ccc(COn2c(-c3ccc(Cl)cc3Cl)nc3ncccc32)cc1 | -20 | i | -3 | -5 | -7 | -9 | / | -4
COc1ccc(NS(=O)(=O)c2ccc(Cl)c(NC(=O)c3cccnc3Cl)c2)cc1 | -6 | i | -10 | -1 | 2 | -8 | 13 | 0
Cc1nn(-c2ccccn2)c(C)c1Oc1ccccc1O | -17 | i | -10 | 0 | 0 | 1 | / | -5
COc1ccc(NS(=O)(=O)c2ccc(N3CCOCC3)c(N)c2)cc1 | -2 | / | 26 | / | 9 | -24 | / | /
COc1ccc(S(=O)(=O)N2CC(O)CC2C(=O)OCc2nc3sc(C)c(C)c3c(=O)[nH]2)cc1 (stereo not drawn) | / | i | 4 | 49 | -15 | -1 | -74 | -2
Cc1ccccc1C(=O)N1CCC(n2nccc2NC(=O)C2CC2)CC1 | -18 | / | 1 | 2 | -2 | 3 | / | -4
O=C(NC1CCCC1)C(c1cccnc1)N(C(=O)c1csnn1)C1CC1 (stereo not drawn) | -9 | i | -6 | -4 | -2 | 0 | -77 | -2
N#Cc1cccnc1N1CCN(C(=O)c2ccc3c(c2)S(=O)(=O)c2ccccc2C3=O)CC1 | 16 | i | -5 | / | 2 | 2 | -1 | /
Cc1nn(C)c(C)c1/C=C(/C(=O)C(C)C)n1cncn1 | / | i | 7 | -4 | -1 | 0 | -4 | 0
CCc1nnc(NS(=O)(=O)c2ccc(NC(=S)NC(=O)c3ccccc3)cc2)s1 | / | i | -11 | 3 | -2 | 2 | 6 | 2
O=C1C(=O)N(Cc2cccnc2)C(c2cccc(F)c2)/C1=C(/O)c1ccc2c(c1)OCO2 (stereo not drawn) | -19 | i | -3 | -10 | 1 | 7 | / | 7
Cc1ccc(-c2nc(N)n(C(=O)c3cccs3)n2)cc1 | -16 | i | -11 | 1 | 0 | 0 | / | -6
Cc1ccccc1N1CCN(C(=O)c2cccnc2)CC1 | -8 | / | / | / | 2 | 1 | 7 | /
O=C(Cn1c(-c2ccccc2)c[n+]2ccsc12)c1ccccc1 | -10 | i | -5 | -7 | 0 | -5 | -4 | -10
Cc1ccc(-c2noc(CCC(=O)N3CCN(c4cccc(C(F)(F)F)c4)CC3)n2)cc1 | -9 | i | -4 | 5 | -5 | -7 | / | -4
CCCn1c(SCC(=O)NCc2ccccc2)n[nH]c1=O | / | i | -2 | -2 | 0 | 5 | -1 | -6
OCC1(Cc2ccccc2F)CCCN(CCc2ccccc2)C1 (stereo not drawn) | 2 | i | 9 | -14 | 0 | 3 | 13 | -7
COc1cccc(/C=N\NC(=O)Cn2nnc3ccccc32)c1O | / | i | 17 | 15 | 0 | -3 | 10 | 1
CCc1ccc(S(=O)(=O)Nc2ccc(Br)cn2)cc1 | -24 | i | -8 | 3 | 2 | 2 | -9 | -7
O=C(NNS(=O)(=O)c1ccccc1[N+](=O)[O-])c1ccccc1Cl | / | i | -8 | -8 | / | / | 5 | -6
CN(C)c1cc(NC(=O)CNC(C)(C)C)c2ccccc2n1 | -11 | i | / | 6 | 1 | 6 | 8 | 33
O=C1Nc2ccccc2C1(O)c1ccccc1O (stereo not drawn) | -4 | i | -5 | 12 | 4 | 5 | -29 | -6
CCOc1cc(/C=C2\C(=O)ON=C2C)ccc1OCc1ccccc1 | / | i | 14 | -9 | -1 | -4 | -101 | -5
c1ccc(CCn2cnc3ccccc32)cc1 | -10 | i | 8 | 1 | 1 | 0 | -27 | 4

Reprinted from the entries so far for reference:
SMILES | Yeast UUG start | Rce1 inh | CSC inhib | eIF4H inh | MT1-MMP act inh | MT1-MMP act inh RFP | Env fusion inh | PABP FP inh | others
c1ccc(-c2nccc(-c3ccc(-n4cnc5ccccc54)cc3)n2)cc1 | -12 | i | 6 | -8 | 4 | 2 | -68 | 1
Clc1ccc(COn2c(-c3ccc(Cl)cc3Cl)nc3ncccc32)cc1 | -20 | i | -3 | -5 | -7 | -9 | / | -4

Going on with the list:
SMILES | Yeast UUG start | Rce1 inh | CSC inhib | eIF4H inh | MT1-MMP act inh | MT1-MMP act inh RFP | Env fusion inh | PABP FP inh | others
Cc1cc(C)c2c3c(oc2n1)C(=O)N(c1cccc(Cl)c1)CC(=O)N3 | / | i | -9 | -2 | 0 | -2 | -13 | 3
Cc1ccc(Cl)cc1N1CCN(C(=O)C2CCN(c3nnc(-n4cccc4)s3)CC2)CC1 | -14 | i | / | -16 | -4 | -30 | 56* | -18
c1ccc2ncc(-n3ccnc3)cc2c1 | -13 | / | / | / | 1 | 5 | -12 | /
COc1ccccc1NS(=O)(=O)c1ccc(C)c(C(=O)NCC(c2ccco2)N2CCCCC2)c1 (stereo not drawn) | 14 | i | -12 | -13 | 1 | 2 | / | -2
Cc1[nH]c(=O)[nH]c(=O)c1NC(=O)CSc1ncccc1-c1nc2ccccc2[nH]1 | -9 | i | -11 | -14 | -3 | 3 | / | -17
Cc1ccc(/C=C(\NC(=O)c2ccccc2)C(=O)NCC2CCCO2)o1 (stereo not drawn) | -8 | i | 4 | -1 | 4 | 1 | 12 | 2
O=c1cc(CSc2nnc3ccccn23)c2c(ccc3ccccc32)o1 | -20 | i | 7 | 44 | -2 | 2 | -7 | -3
O=C1OC(c2ccc3c(c2)OCO3)N(C(=O)c2ccc(Cl)c(Cl)c2)c2ccccc21 (stereo not drawn) | 3 | i | 28 | -2 | 0 | -3 | / | -10
CC(=O)N(C)c1ccc(OCC(O)CN(c2ccccc2C)S(=O)(=O)c2ccc(C)cc2)cc1 (stereo not drawn) | -1 | i | -1 | -6 | 3 | -12 | -2 | 10
C[C@@H](NC(=O)c1nc[nH]c1C(=O)NCc1ccccc1)c1ccccc1 | 7 | / | 5 | / | 4 | -5 | -23 | /
CCOC(=O)c1[nH]c(C)c(C(=O)Nc2ccc(Cl)cc2)c1C | -9 | i | / | -6 | 5 | 4 | -7 | -15
Cc1ccc(O)c(C(CC(=O)NCc2ccco2)c2ccccc2)c1 (stereo not drawn) | / | i | -22 | -5 | -1 | -2 | -2 | 7
O=C(CCCOc1ccc(Cl)cc1Cl)N/N=C/c1ccco1 | / | i | 10 | 10 | -4 | -8 | 26 | 34
COc1ccccc1NC(=O)COC(=O)C12CC3CC(CC(Br)(C3)C1)C2 | -15 | / | -22 | / | -3 | 3 | / | /
Cc1cccc(C)c1NC(=O)CN(C)C(=O)c1cc(S(=O)(=O)N2CCOCC2)ccc1N1CCCC1 | 1 | i | -5 | / | -1 | 0 | 6 | /
c1ccc2nc3ccccc3nc2c1 | -7 | i | -13 | -4 | 1 | 2 | / | 17
Cc1cc2c(cc1S(=O)(=O)Nc1cccc(F)c1)n(C)c(=O)c(=O)n2C | 1 | i | 7 | -14 | -3 | 3 | 7 | -4
COc1ccccc1C1CC(c2cccs2)=Nc2ccccc2S1 (stereo not drawn) | -23 | i | -10 | 3 | -10 | -1 | -5 | 2
CCOC(=O)C1(C)/C(=N/Nc2ccc(Cl)cc2)C(=O)C(=O)N1c1ccccc1 (stereo not drawn) | -18 | i | 41 | -3 | 11 | 5 | 15 | 8
COc1ccccc1-c1nn(Cc2ccccc2)cc1C(=O)N1CCN(c2ncccn2)CC1 | 6 | / | / | / | -6 | -3 | -4 | /
CCOC(=O)N1CCC(NC(=O)c2cn(-c3ccc(OC)cc3)c(=O)c3ccccc23)CC1 | -10 | i | -13 | -16 | 0 | 4 | -16 | -4
Cc1ccc(NS(=O)(=O)c2csc(C(N)=O)c2)cc1C | -14 | i | -5 | 1 | -3 | -15 | 2 | -4
CCN(CC)CCNC(=O)c1ccc(NC(=O)Cc2ccccc2F)cc1 | 0 | i | -5 | 3 | 1 | 6 | -4 | 10
CC(=O)Nc1cccc(NC(=O)COc2ccccc2C)c1 | -15 | i | 0 | -13 | 0 | -11 | -97 | 6
CCOc1ccc(NC(=O)CN2CCN(C(=O)c3ccco3)CC2)cc1S(=O)(=O)N1CCCC1 | -4 | / | -6 | / | -1 | 0 | 2 | /

(further entries)
SMILES | Yeast UUG start | Rce1 inh | CSC inhib | eIF4H inh | MT1-MMP act inh | MT1-MMP act inh RFP | Env fusion inh | PABP FP inh | others
N/C(=N\OC(=O)CCCN1C(=O)c2ccccc2C1=O)c1ccc(Cl)cc1 | -13 | i | 11 | -1 | 2 | 0 | / | -6
CCN(Cc1ccccc1)C(c1ccncc1)c1nnnn1C(C)(C)C (stereo not drawn) | -4 | / | / | 11 | 0 | 0 | / | -6
NC(=O)C1CC(=O)N(Cc2ccc3c(c2)OCO3)C(=Nc2ccccc2)S1 (stereo not drawn) | -2 | i | 6 | -8 | -2 | -3 | / | -2
Cc1cccc(N2CC3=C(C2=O)C(c2ccccc2)NC(=O)N3C)c1 (stereo not drawn) | / | i | -13 | -1 | 6 | 3 | 0 | -4
CC1(C)CC(=O)C2=C(C1)OC(N)=C(C#N)C21C(=O)N(CN2CCOCC2)c2ccccc21 (stereo not drawn) | -9 | i | -15 | 28 | -4 | 10 | 16 | 34
Cc1ccc([N+](=O)[O-])cc1NC(=O)CN1CCC(C)CC1 | -21 | i | -22 | 61 | 4 | 2 | -76 | 1 | eIF4H inh retest=-1;PABP FP inh retest=25
CCC(=O)N1CCC1(C)C(=O)Nc1ccc(OC(F)F)cc1 (stereo not drawn) | -20 | / | / | / | 0 | -6 | 6 | /
Cn1nnc(NC(=S)NC(=O)c2cccc3ccccc23)n1 | -25 | i | -20 | 6 | 2 | 5 | -8 | -5
CCc1ccccc1-n1c(SCC(=O)NC)nnc1-c1ccco1 | -2 | i | -2 | -4 | 2 | 4 | 3 | -10
COc1ccc(-c2ccc(=O)n(CC(=O)NCC3COCCO3)n2)cc1 (stereo not drawn) | / | i | -13 | / | -1 | 6 | -18 | /

Grouped by structure, the compounds so far containing an aryl methoxy group.
SMILES | Yeast UUG start | Rce1 inh | CSC inhib | eIF4H inh | MT1-MMP act inh | MT1-MMP act inh RFP | Env fusion inh | PABP FP inh | others
COc1ccc(NS(=O)(=O)c2ccc(Cl)c(NC(=O)c3cccnc3Cl)c2)cc1 | -6 | i | -10 | -1 | 2 | -8 | 13 | 0
COc1ccc(NS(=O)(=O)c2ccc(N3CCOCC3)c(N)c2)cc1 | -2 | / | 26 | / | 9 | -24 | / | /
COc1ccc(S(=O)(=O)N2CC(O)CC2C(=O)OCc2nc3sc(C)c(C)c3c(=O)[nH]2)cc1 (stereo not drawn) | / | i | 4 | 49 | -15 | -1 | -74 | -2
COc1cccc(/C=N\NC(=O)Cn2nnc3ccccc32)c1O | / | i | 17 | 15 | 0 | -3 | 10 | 1
COc1ccccc1NS(=O)(=O)c1ccc(C)c(C(=O)NCC(c2ccco2)N2CCCCC2)c1 (stereo not drawn) | 14 | i | -12 | -13 | 1 | 2 | / | -2
COc1ccccc1NC(=O)COC(=O)C12CC3CC(CC(Br)(C3)C1)C2 | -15 | / | -22 | / | -3 | 3 | / | /
COc1ccccc1C1CC(c2cccs2)=Nc2ccccc2S1 (stereo not drawn) | -23 | i | -10 | 3 | -10 | -1 | -5 | 2
COc1ccccc1-c1nn(Cc2ccccc2)cc1C(=O)N1CCN(c2ncccn2)CC1 | 6 | / | / | / | -6 | -3 | -4 | /
CCOC(=O)N1CCC(NC(=O)c2cn(-c3ccc(OC)cc3)c(=O)c3ccccc23)CC1 | -10 | i | -13 | -16 | 0 | 4 | -16 | -4
COc1ccc(-c2ccc(=O)n(CC(=O)NCC3COCCO3)n2)cc1 (stereo not drawn) | / | i | -13 | / | -1 | 6 | -18 | /
